From PubChem BioAssay
PrP UTR inh = suppresses PrP 5' UTR mRNA reporter expression; cell-based PrP 5' UTR mRNA reporter, plate reader; AID 488862; 340,000 tested, 0.35% active; inhibition, % (concentration not given with the values);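 active = every replicate at 50% or more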;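 also: 0 = median of the neutral control wells; tested in H4 reporter cells; numbers are from one replicate; inactives centre near -14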
BJeLR viability = BJeLR cell viability loss. BJeLR (HRASV12) viability, CellTiter-Glo ATP luminescence, 48 h; reference of the scale not given here. inhibition, % (no concentration beside the values). 300,000 tested, 0.17% active;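 active = replicate mean above 50%; inconclusive = above 50% but judged a plate artefact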;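 also: 50 nL library stock added to about 25 µL; numbers are from one replicate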
Bead autofluor = counter-screen for toxin protease inhibitors: compound fluorescence; fluorescence intensity (concentration not given with the values); compound autofluorescence counterscreen, microsphere flow cytometry; stronger effect = higher value; 360,000 tested, 3.1% active;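 active = at least 3 SD above the mean of all compounds, about 16000 in these data; inconclusive = too few beads counted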;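 also: 100 nL of 1 mM stock went into each well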
RN4220 kill = S. aureus RN4220 growth inhibition; OD600, 16 h; inhibition, % (no concentration beside the values); 330,000 tested, 0.33% active;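 active = z-score of -3 or lower and OD600 up to 0.18 on both plates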;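 also: plate controls were untreated cells for no effect and reference antibiotic for full effect; stock transfer was 100 nL into about 80 µL; one replicate is shown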
Sa ugtP lethal = growth inhibition of S. aureus ugtP deletion strain; growth inhibition, % (no concentration beside the values); 330,000 tested, 0.54% active; S. aureus RN4220 ugtP deletion, OD600 growth, 16 h; some inactives read as strong as hits;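 active = z-score under -3 and OD600 up to 0.15 on both plates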;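 also: plate controls were untreated wells for no effect and antibiotic for full effect; wells of about 80 µL received 100 nL stock; the first replicate is given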
Mtb hypoxia rep = Mtb hypoxia fluorescent reporter inhibition; M. tuberculosis hypoxia-regulated fluorescent reporter, fluorescence; fluorescence inhibition, % (concentration not given with the values); 300,000 tested, 0.1% active;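 active = 35 to 45% if threefold the growth effect, above 45% if 1.5-fold the growth effect; inactive = the rest, general growth blockers included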;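 also: wells of about 50 µL received 100 nL stock; 0% = vehicle wells and 100% = reference inhibitor wells; whole bacteria with a GFP reporter of the hypoxia response; strong numbers were not always called active; many hits fall short of the cut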
Mtb hypoxia rep growth = second read-out of Mtb hypoxia rep, no call of its own (marks repeat the call); growth inhibition, %; measured here: M. tuberculosis growth (absorbance);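 0% = vehicle and 100% = reference antibiotic; read after six days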
Starred values were filed as active, the others as inactive; ? = inconclusive; . = not tested or not shown; & = joins results of further samples. An unsorted share of the library; about 4.1% have a hit in one of these screens.

Start of the data: the first three compounds, to show the layout:
compound	PrP UTR inh	BJeLR viability	Bead autofluor	RN4220 kill	Sa ugtP lethal	Mtb hypoxia rep	Mtb hypoxia rep growth
Cc1nc(C)c(C(=O)OCC(=O)NCCc2ccc(F)cc2)s1	-8	.	4583	1.2	6	7	-3
CC(=O)OCC(=O)NCCCOc1cccc(CN2CCCCC2)c1	-6	0	5734	2.7	-6	-2	-1
COc1ccc2c(c1)OCC(O)(c1ccccc1)C2=O (stereo unspecified)	-13	.	3646	4.9	0	9	9

This part in full (from the top)
compound	PrP UTR inh	BJeLR viability	Bead autofluor	RN4220 kill	Sa ugtP lethal	Mtb hypoxia rep	Mtb hypoxia rep growth
Cc1nc(C)c(C(=O)OCC(=O)NCCc2ccc(F)cc2)s1	-8	.	4583	1.2	6	7	-3
CC(=O)OCC(=O)NCCCOc1cccc(CN2CCCCC2)c1	-6	0	5734	2.7	-6	-2	-1
COc1ccc2c(c1)OCC(O)(c1ccccc1)C2=O (stereo unspecified)	-13	.	3646	4.9	0	9	9
Cc1ccc(-c2c3c(=O)n(C)c(=O)n(C)c3cn2-n2cnnc2)cc1	-16	-3	2417	19	2	-4	3
COc1ccc(-n2nc(C(=O)NCC(=O)NCCC3=CCCCC3)c3ccccc3c2=O)cc1OC	-20	-5	4524	2.2	-2	2	-1
CCN(C(=O)COC(=O)c1c2c(nc3ccccc13)CCC2)c1c(N)n(Cc2ccccc2)c(=O)[nH]c1=O	-17	.	3349	3.5	1	8	4
COc1ccccc1NC(=O)CSc1nc2sc(C)c(C)c2c(=O)n1C	-5	-4	4140	2.4	1	1	-3
Cc1cccc(NCC(=O)NN=Cc2ccccn2)c1	.	.	.	3.6	8	-4	-10
CSc1ccccc1OCc1cc(C(=O)NC2CCOC2)no1 (stereo unspecified)	-31	1	5389	3.5	0	3	0
O=S1(=O)CCN2C=Nc3sc4c(c3C2=N1)CCCC4	-13	6	4603	0.7	0	.	.
COc1ccc(NC(=O)c2ccccc2C)cc1	-48	2	3987	3.7	5	1	-7
COc1ccc(C=NNc2nnc(-c3ccccc3)c(=O)[nH]2)cc1	.	.	.	2.8	1	7	13
CCN1CCN(CC(O)COc2ccc(C)c(C)c2)CC1 (stereo unspecified)	-9&-13	8	3918&2919	5.2&-15	3&-3	-2&2	7&8
COC(=O)c1ccccc1NC(=O)c1ccc(-c2cccc(Cl)c2)o1	-36	9	3062	-5.2	7	5	3
CCOC(=O)C1CCN(C(C(=O)NC2CCCC2)c2ccc(C)cc2)CC1 (stereo unspecified)	-17	-13	5809	1.8	16	6	6
COc1ccc(C)cc1NS(=O)(=O)c1ccc2c(c1)n(C)c(=O)n2C	-1	7	2467	7.4	6	1	4
Clc1ccc(C=Nc2c(-c3ccco3)nc3ccccn23)cc1	.	.	.	2.4	-5	-1	-6
O=C(CSc1nc2ccccc2c(=O)n1-c1ccc(OC(F)F)cc1)NCc1cccs1	-18	-2	2525	0.9	0	3	-2
CN(C)/C=C(/C(=O)c1ccc(Cl)cc1)S(=O)(=O)c1ccc(Cl)cc1	-24	-1	16355*	2.9	8	5	9
CC(=O)c1cccc(NC(=O)c2sc3nc4n(c(=O)c3c2C)CCCCC4)c1	4	3	6506	1.9	2	2	1
Cc1ncc(CO)c(/C=N/NC(=S)Nc2ccc(F)cc2)c1O	-13	2	2501	.	.	.	.
CCOC(=O)N1CCN(S(=O)(=O)N2CCCC(C(=O)NCc3ccccc3OC)C2)CC1 (stereo unspecified)	-18	7	5664	0.3	-1	13	-1
CCc1cc2c(Sc3nc4ccccc4s3)ncnc2s1	-2	16	3409	-9.3	-20	6	-1
COc1ccc(OC)c(CCNC(=O)Cn2sc3nc(C)cc(C)c3c2=O)c1	.	-4	.	0.2	0	-9	-10
CC1CN(c2ccccc2)NC1=O (stereo unspecified)	-12	-6	4484	3.8	3	7	11
CCc1ccc(O)c(-c2cc(C(=O)Nc3cccnc3)[nH]n2)c1	-81	6	3732	2.4	-5	-8	14
COc1cccc(N2CCN(C(=O)Nc3ccccc3Cl)CC2)c1	-15	-7	2475	3.3	7	2	8
CCOC(=O)N1CCN(C(=O)c2ccc(N3C(=O)CCC3=O)cc2)CC1	-18	9	?	4.1	3	-12	-11
CCN(Cc1ccccc1)C(c1cccc(C#N)c1)c1nnnn1C(C)(C)C (stereo unspecified)	-27	-12	8175	3.1	9	-7	6
O=C(c1ccco1)N1CCCC(N2CCN(c3ccccc3F)CC2)C1 (stereo unspecified)	-12	-1	5640	-0.4	8	8	0
COC(=O)C1=C(C(=O)OC)[C@@H]2N(C)c3ccccc3[C@@]23C[C@@H](C(=O)OC)N(C(=O)c2cc(C)oc2C)C3=N1	-18	-7	3354	.	.	.	.
CC1CC(C)CN(S(=O)(=O)N2CCCC(C(=O)NC(C)c3ccccc3)C2)C1 (stereo unspecified)	-6	1	4657	0.8	2	-2	1
Cc1ccc(NC2(C#N)C(=O)Nc3ccccc32)cc1C (stereo unspecified)	-25	4	4438	4.4	7	5	6
O=C(NNC(=O)C12CC3CC(CC(O)(C3)C1)C2)c1ccccc1O	-23	-7	5966	-2.2	1	6	-1
COc1ccc2c(CC(=O)O)cc(=O)oc2c1	-26	9	4599	3.7	-5	-1	1
O=[N+]([O-])c1ccccc1-c1ccc(C(=S)N2CCN(c3ccccc3)CC2)o1	-10	-5	3592	2.6	-4	6	0
COc1ccccc1CC(=O)c1ccccc1OC	-7	.	3271	0.4	-1	5	15
CCOC(=O)CSc1nc2sc3c(c2c(=O)n1-c1ccccc1)CCN(C)C3	-11	5	3853	2.4	4	-1	13
CC1Sc2ccc(S(=O)(=O)NCCc3ccccc3)cc2NC1=O (stereo unspecified)	-22	-3	6160	1.3	-2	3	2
Cn1ccc(C(=O)N/N=C/c2cccnc2)n1	-6	7	3603	.	.	.	.

Two compounds picked at random from those above:
compound	PrP UTR inh	BJeLR viability	Bead autofluor	RN4220 kill	Sa ugtP lethal	Mtb hypoxia rep	Mtb hypoxia rep growth
COc1ccc(-n2nc(C(=O)NCC(=O)NCCC3=CCCCC3)c3ccccc3c2=O)cc1OC	-20	-5	4524	2.2	-2	2	-1
COc1ccc(C=NNc2nnc(-c3ccccc3)c(=O)[nH]2)cc1	.	.	.	2.8	1	7	13

The results go on:
Below each SMILES: PrP UTR inh | BJeLR viability | Bead autofluor | RN4220 kill | Sa ugtP lethal | Mtb hypoxia rep | Mtb hypoxia rep growth
> CCOC(=O)N1CCN(C(=O)COc2ccc3oc4c(c3c2)CCCC4)CC1
  -23 | 3 | 4592 | 3.3 | -2 | 0 | 12
> Cc1ccc(NC(=O)c2cccc(NC3=NC4CS(=O)(=O)CC4S3)c2)cc1 (stereo unspecified)
  -25 | -1 | 5139 | -15 | -4 | 5 | 1
> CC(=O)NC(Nc1nc2c(s1)CCCC2)(C(F)(F)F)C(F)(F)F
  -18 | 3 | 2517 | -0.6 | 2 | 5 | 3
> CN1CCN(Cc2coc3c(Cl)cc(Cl)cc3c2=O)CC1
  -21 | 8 | 3608 | 0.8 | -3 | -5 | 11
> COc1ccc(C(=O)C2CCCN(Cc3sc(N4CCCC4)nc3Cl)C2)c(OC)c1 (stereo unspecified)
  -15 | 6 | 5366 | 8.9 | 9 | 1 | 3
> COc1ccc(C2(C(=O)Nc3ccc(C)cc3)CCOCC2)cc1
  -26 | 5 | 4222 | -0.7 | 7 | 3 | -4
> COc1ccc(-c2csc(N3CCOCC3)n2)cc1OC
  -47 | -2 | 4759 | 3.2 | 7 | . | .
> COc1ccccc1NS(=O)(=O)c1cccc(NC(=O)c2cncc(Br)c2)c1
  6 | . | 2980 | 3.9 | -6 | -3 | 4
> Cc1cc(C)n(C(=O)CNC(=O)c2ccc(C(C)(C)C)cc2)n1
  -9 | -1 | 5812 | -0.9 | 1 | 0 | -4
> Cc1nnc(N)nc1C
  -18 | -3 | 2180 | 1.8 | 0 | . | .
> COc1ccc(-c2coc3cc(O)c(OC)cc3c2=O)cc1
  -25 | . | 2782 | 7.4 | -5 | 13 | 4
> O=C(Nc1ccc(Cl)cc1)Nc1ccc(S(=O)(=O)Nc2ncccn2)cc1
  -21 | -2 | 4503 | 8.0 | 7 | 19 | 6
> O=C(Cc1cccc2ccccc12)NN=Cc1ccc(Sc2nc3ccccc3s2)o1
  . | . | . | -2.0 | -12 | 12 | 16
> COc1ccccc1CCC(=O)N(C)CC(=O)Nc1ccc(F)cc1
  3 | -2 | 4102 | 3.8 | 6 | 7 | -3
> CCOc1ccc2nc(NC(=O)CSc3nc4c(c(=O)n(C)c(=O)n4C)n3CC)sc2c1
  . | -7 | . | 1.9 | 4 | 3 | 4
> Cc1cccc(C#Cc2ccccc2)n1
  -39 | . | 5132 | 5.8 | 4 | 2 | 9
> O=C(Nc1nc(-c2cccnc2)cs1)c1ccccc1F
  -40 | 1 | 4539 | -2.4 | -1 | 3 | -4
> O=C(NN=C/C(Cl)=C/c1ccccc1)c1ccncc1
  . | . | . | 0.3 | 1 | 4 | 16
> COC(=O)c1ccc(Cn2c(O)c(N=NC(N)=S)c3ccccc32)o1
  -14 | 7 | 4232 | . | . | . | .
> Cc1ccc2nc(SCC(=O)Nc3cccc4ccccc34)nc(=O)n2c1
  -19 | 7 | 4169 | -1.4 | -6 | -3 | 5
> C=CCNC(=S)N/N=C(\C)c1cc(OC)c(OC)c(OC)c1
  -19 | -18 | 2075 | . | . | . | .
> COc1ccccc1C=NN1C(=O)C2C3C=CC(CC3)C2C1=O (stereo unspecified)
  . | . | . | 5.2 | -2 | 10 | 9
> O=C(NN=Cc1cnc(N2CCCCC2)s1)c1ccc(Cl)cc1
  . | . | . | -2.0 | 15 | 10 | 3
> Cc1ccc(OCCn2ccc(=O)[nH]c2=O)cc1C
  -26 | 5 | 5855 | 4.0 | 5 | 4 | 18
> CCN(CC)CCN1C(=O)C(O)=C(C(=O)c2cc3ccccc3o2)C1c1cccnc1 (stereo unspecified)
  -11 | -8 | 4330 | -0.7 | 1 | . | .
> Cc1ccc(CSc2nnc(-c3cnccn3)n2C)cc1
  -13 | 3 | 4416 | 4.5 | 5 | 19 | 9
> COc1cc(NC(=O)c2cc3ccccc3o2)ccc1NC(=O)c1ccco1
  -14 | -4 | 3526 | -3.1 | -13 | -1 | -1
> Cc1nnc(N(Cc2ccco2)C(=O)c2ccc(C#N)cc2)s1
  -14 | -8 | 2259 | 0.9 | 3 | . | .
> O=C(CNC1CCCCC1)N1CCC2(CC1)OCCO2
  1 | -6 | 4331 | 1.9 | -2 | 18 | 6
> COc1ccc(C2=NN(C(=O)CSc3nc(=O)n4cccc(C)c4n3)C(c3ccc(C)cc3)C2)cc1 (stereo unspecified)
  -11 | -1 | 6053 | -1.6 | -5 | 2 | 7
> COc1ccc(C(=O)N/N=C(/C)c2cccc(NC(=O)c3ccccc3F)c2)cc1
  -13 | 4 | 5355 | . | . | . | .
> Cc1ccc(N=c2c([N+](=O)[O-])nn(-c3ccc(Cl)cc3)n2O)cc1C
  -7 | 11 | 4476 | -1.0 | 6 | -1 | 0
> Cc1ccc(C(=O)Nc2nc(COc3ccccc3)cs2)s1
  -18 | 12 | 13381 | 21 | 0 | 3 | -3
> O=C(Cn1cc([N+](=O)[O-])cn1)NCc1ccco1
  -23 | 9 | 4204 | 3.5 | 14 | 5 | 2
> COC(=O)CSc1nc2cc(OC)ccc2cc1C#N
  -96 | -5 | 9666 | 4.2 | -5 | 4 | 0
> COC(=O)c1ccc(-n2c(CCC(=O)O)ccc2-c2ccccc2)cc1
  3 | -2 | 2712 | -1.7 | -13 | -10 | -1
> O=C(O)/C=C/C(=O)Nc1ccc(Oc2ccccc2)cc1
  -23 | -8 | 3253 | 3.4 | 11 | 9 | -4
> N#Cc1ccc(-c2csc(NNC(=O)c3ccc(Br)cc3)n2)cc1
  -18 | -1 | 2557 | -2.3 | 2 | . | .
> Cc1cc(C(=O)COc2ccccc2Cl)c(C)n1-c1ccc2c(c1)OCO2
  -39 | 9 | 2108 | -5.7 | -4 | 15 | 12
> c1c2c(cc3sc(N4CCCCC4)nc13)OCCO2
  76* | 32 | 7663 | 17 | 4 | -4 | -6
